# SARS PLpro yeast = inhibitors of SARS-CoV papain-like protease in yeast; S. cerevisiae expressing SARS-CoV PLpro, growth rescue; control for the full effect not named in the record; Potency, µM (titrated, usually from 32.9 µM), for the others: at the top dose activity, positive = growth rescue; actives 0.19% (n = 330,000); active means well fitted rising curve with a large enough effect; inconclusive means small, poorly fitted or top-dose-only effect; inactive means no such curve, though single readings can be large or run the other way; note: 0% is about no effect; nearly all actives have a fitted effect of over 55% in size; growth read by luminescence after 48 h
# 2A StopGo = lowers the luciferase signal of an FMDV 2A StopGo reporter; human cells with a luciferase reporter of 2A StopGo recoding; control for the full effect not named in the record; Potency, µM (top dose mostly 57.9 µM), inactives show top-dose signal change, negative = less light; actives 1.2% (n = 410,000); active = well fitted falling curve with a large enough effect; inconclusive = small, poorly fitted or top-dose-only effect; inactive = no such curve, though single readings can be large or run the other way; tested in HEK293T cells; note: % is set by controls: 0 for no effect and ±100 for the full control effect; nearly all actives have a fitted effect of over 45% in size; luciferase light after 4 h
# RE007 growth inh = less growth of the S. pombe RE007 Vpr strain; S. pombe RE007 Vpr strain, BacTiter-Glo ATP luminescence, 24 h; control for the full effect not named in the record; Potency, µM (doses to about 92.2 µM), for inactives: at the highest dose activity change, negative = less growth; actives 0.21% (n = 360,000); AID 651644; active = well fitted falling curve with a large enough effect; inconclusive = small, poorly fitted or top-dose-only effect; inactive = no such curve, though single readings can be large or run the other way;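 note: % is set by controls: 0 for no effect and ±100 for the full control effect; nearly all actives have a fitted effect of over 50% in size; the assay follows cell death caused by Vpr and the record does not say whether a fall means rescue or toxicity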
#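 Fission yeast strain RE007, carrying one chromosomally integrated HIV-1 vpr copy, was seeded at OD 0.01 in PMG+AL medium with 23 nL pinned compound. After 24 h at 30 °C and 99% humidity, viability was read by BacTiter-Glo luminescence.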
# Cruzain Triton = blocks cruzain activity in presence of Triton detergent; P25779; purified cruzain, Z-FR-AMC fluorescence, 0.01% Triton; actives 0.43% (n = 200,000); Potency, µM, inactives show max response, negative = inhibition, hits mostly inhibitors; AID 1478;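 note: plate controls were neutral wells for no effect and buffer without enzyme for full effect; nearly all actives have a fitted effect of over 40% in size; top concentration of the series not given in the record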
# Target sequence (P25779 123-467 limits assumed): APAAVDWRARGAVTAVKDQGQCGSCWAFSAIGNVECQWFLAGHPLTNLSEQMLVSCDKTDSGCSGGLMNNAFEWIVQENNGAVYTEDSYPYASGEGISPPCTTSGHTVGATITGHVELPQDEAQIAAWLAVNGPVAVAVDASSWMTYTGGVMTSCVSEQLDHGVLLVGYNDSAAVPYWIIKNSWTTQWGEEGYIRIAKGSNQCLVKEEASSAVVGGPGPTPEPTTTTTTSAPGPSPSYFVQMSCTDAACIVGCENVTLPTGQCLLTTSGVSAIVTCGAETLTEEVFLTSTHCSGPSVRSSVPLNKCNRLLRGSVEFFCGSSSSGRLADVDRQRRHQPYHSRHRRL
#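 Cysteine protease activity tested under reducing, mildly acidic conditions (100 mM sodium acetate pH 5.5, 5 mM DTT) plus 0.01% Triton X-100. Cruzain 1.5 nM; substrate Z-FR-AMC 2 uM; 15 min compound preincubation at room temperature.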
# Cruzain inh noDet = cruzain (T. cruzi) inhibition without detergent. P25779. purified cruzain, Z-FR-AMC fluorescence, no detergent. Potency, µM, inactives show max response, negative = inhibition, usual class: inhibitors. actives 2.3% (n = 200,000). AID 1476;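 note: plate controls were enzyme without inhibitor for no effect and buffer without enzyme for full effect; nearly all actives have a fitted effect of over 40% in size; top concentration of the series not given in the record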
#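 Purified cruzain at 1.5 nM, pre-incubated 15 min with compound at room temperature in 100 mM sodium acetate pH 5.5, 5 mM DTT, 0.00005% Triton X-100. Reaction started with 2 uM Z-FR-AMC; AMC fluorescence increase over 60 s gives rate.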
# Marburg entry inh = Marburg virus entry inhibition; Marburg virus pseudotyped entry inhibition, cell reporter; control for the full effect not named in the record; about a third of the inactives were read at about 46 µM; actives 1.8% (n = 300,000); Potency, µM (top dose mostly 37.8 µM), for inactives: at the top dose activity change, negative = inhibition, actives largely listed as inhibitors; AID 540276; active = well fitted inhibition curve with a large enough effect; inconclusive = small, poorly fitted or top-dose-only effect, or effect the other way; inactive = flat fitted curve, though single readings scatter; tested in HEK293 cells; about a fifth of its hits are not listed in these tables; note: % is set by controls: 0 for no effect and ±100 for the full control effect; luciferase read-out
# LASV entry inh = blocks Lassa virus binding to or entry into cells | Lassa virus pseudotype entry inhibition, cell reporter; control for the full effect not named in the record | Potency, µM (titrated, usually from 37.9 µM), for inactives: at the highest dose activity change, negative = inhibition, actives largely listed as inhibitors | actives 1.2% (n = 300,000); active means well fitted inhibition curve with a large enough effect; inconclusive means small, poorly fitted or top-dose-only effect, or effect the other way; inactive means flat fitted curve, though single readings scatter; tested in HEK293 cells; note: % is set by controls: 0 for no effect and ±100 for the full control effect; nearly all actives have a fitted effect of over 50% in size; luciferase read-out
# NS1 function inh = blocks influenza NS1 protein function. S. cerevisiae slowed by influenza A NS1, growth recovery by OD600. Potency, µM (titrated, usually from 46.1 µM), for inactives: at the top dose activity, positive = more growth. actives 0.4% (n = 270,000). AID 2326; active means well fitted rising curve with a large enough effect; inconclusive means small, poorly fitted or top-dose-only effect; inactive means no such curve, though single readings can be large or run the other way; note: nearly all actives have a fitted effect of over 50% in size
#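 S. cerevisiae expressing influenza A NS1, grown in glucose, washed, then diluted 1:100 into pH 6.0 -URA galactose medium with 23 nl compound. Growth recovery read as OD600; NS1-free strain serves as control.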
# The depositor's hits bear a star; ? = inconclusive; . = not tested or not shown; & = joins results of further samples; [ ] = dose if it differs, or a comment. Unless noted, calls come from the whole dose curve; as a rule, active = well fitted curve in the direction sought with a large enough effect; inconclusive = small, poorly fitted or top-dose-only effect, or another doubt; inactive = no such curve, though single readings can be large; an effect the other way counts as inactive or inconclusive. Potency is the fitted concentration of half-maximal effect.
SMILES,SARS PLpro yeast,2A StopGo,RE007 growth inh,Cruzain Triton,Cruzain inh noDet,Marburg entry inh,LASV entry inh,NS1 function inh
COc1ccc(-c2nc3cnccn3c2Nc2ccc3c(c2)OCO3)cc1,2%,-30%,5%,-6.2%,-15%,-37%,-22%,-84%
O=C(CCCCCn1c(=S)[nH]c2ccc(N3CCOCC3)cc2c1=O)NCc1ccc2c(c1)OCO2,0%,-20%,-13%,.,.,?,-2%,.
CCCCNC(=O)c1onc(CSc2cccc(OC)c2)c1C(=O)O,-4%,-10%,-7%,1.4%,3%,.,.,-1%
CCOc1ccc(N2CC(C(=O)Nc3cccc(S(=O)(=O)NC4=NCCC4)c3)CC2=O)cc1 (centres undefined),-1%,6%,11%,.,.,.,.,3%
CC(C)CC(=O)Nc1ccc2c(c1)oc1ccccc12,0%,62%[activator],9%,3.6%,-24%,?,?,-37%
CN1CCN(c2nc(C#N)cc(-c3ccccc3)n2)CC1,0%,-16%,-7%,-22%,?,0%,1%,10%
Cc1cccc(NC(=O)Nc2ccc(OCc3ccccc3)cc2)n1,1%,9%,5%,.,.,?,-20%,4%
Cc1ccc(NC(=O)C2CCCN(S(=O)(=O)c3ccc4c(c3)oc(=O)n4C)C2)cc1Cl (centres undefined),.,?,.,-3.1%,-19%,6%[46.1 µM],15%[46.1 µM],.
COc1ccc(C(C)=O)cc1CN1C(=O)NC2(CCCCC2C)C1=O (centres undefined),2%,-25%,-22%,-0.2%,1%,?,0%,-1%
CC(=O)Nc1nc2ccc(S(=O)(=O)N3CCCC3)cc2s1,1%,13%,-4%,.,.,.,.,5%
Cc1ccc(N2CC(C(=O)NCCC(C)C)CC2=O)cc1 (centres undefined),2%,-9%,24%,-0.2%,-3%,8%,5%,-12%
O=C(NCCO)c1ccc2c3n(nc2c1)-c1ccc(Cl)cc1CO3,-1%,37%[activator],-18%,.,.,.,.,-5%
O=S(=O)(c1cccs1)N1CCN(Cc2nc3ccccc3s2)CC1,1%,-9%,4%,-3.4%,-23%,-25%,-1%,-16%
COc1ccc(CN2CC(C(=O)NCCN3CCOCC3)CC2=O)cc1 (centres undefined),-4%,10%,13%,2.3%,-3%,0%,18%,-1%
O=C(O)CSC(C(=O)Nc1ccc(C(F)(F)F)cc1)c1ccccc1 (centres undefined),-1%,-5%,12%,-2.4%,-2%,-20%,2%,-3%
CN(C(=O)c1cc(COc2c(F)cccc2F)on1)C1CCOC1 (centres undefined),2%,61%[activator],0%,.,.,?,0%,11%
CN(C)S(=O)(=O)c1ccc(NC(=O)CN2CCN(c3ccccn3)CC2)cc1,2%,10%,-6%,.,.,?,?,2%
N#Cc1cc(Oc2ccc(Cl)cc2)c(N2CCOCC2)cc1C#N,.,0%,6%,.,.,-26%[46.1 µM],?,.
CC1(C)CC(=O)C(N=Nc2c(Cl)cc(Cl)cc2Cl)=C(O)C1,16%,-11%,-6%,-10%,-6%,?,0%,4%
CCCCn1c(N)c(N(CCOC)C(=O)COc2ccc(OCC)cc2)c(=O)[nH]c1=O,-7%,-10%,8%,.,.,8%,15%,.
Cc1occc1C(=O)NC(C)C12CC3CC(CC(C3)C1)C2 (centres undefined),-6%,-16%,?,.,.,-14%[46.1 µM],0%[46.1 µM],-66%
CCOc1ccc(N(CC(=O)NCCSCc2ccccc2Cl)S(C)(=O)=O)cc1,5%,-4%,6%,.,.,.,.,-20%
CC(C)C[C@@H](CSc1ccc(Br)cc1)N1CCN(CCc2ccccc2)CCC1=O,-10%,-9%,-7%,.,.,.,.,-42%
COc1ccc(C(c2c(O)c3ccccc3oc2=O)c2c(C)n(C)n(-c3ccccc3)c2=O)cc1 (centres undefined),12%,35%&52%[activator],13%,-12%&-6.6%,-12%&-5%,?,-19%[46.1 µM],?
O=C(NC1CCCCC1)c1cc(F)cc2c1OCOC2,-1%,21%,-23%,.,.,21%[46.1 µM],-22%[46.1 µM],-1%
CCOc1ccc(/C(O)=C2/C(=O)C(=O)N(c3ccccn3)C2c2ccc(F)cc2)c(C)c1 (centres undefined),-1%,-26%,-19%,.,.,1%[46.1 µM],15%[46.1 µM],10%
COc1ccc(N2CCN(C(=O)CSc3nnc4c(C)cc5ccccc5n34)CC2)cc1,12%,?,-5%,-3.2%,?,3%,-21%,4%
COc1ccc(C(=O)N2CCN(Cc3ccc4c(c3)OCO4)CC2)cc1OC,8%,?,-9%,.,.,.,.,7%
O=C(C1CCCN(Cc2ccc([N+](=O)[O-])cc2)C1)N1CCCCC1 (centres undefined),2%,-25%,-13%,.,.,.,.,-5%
Cc1nc2nc(NC(=O)c3ccc(C(C)(C)C)cc3)[nH]n2c(=O)c1C,.,-13%,.,4.7%,6%,29%[46.1 µM],0%[46.1 µM],.
COc1ccc(-c2nnc(NC(=O)c3ccc4c(c3)OCCO4)o2)cc1,-1%,-11%,-7%,.,.,.,.,-1%
Cn1c(SCc2ccc(F)cc2)nc2ccc(C(=O)NCc3cccc(Cl)c3)cc21,.,-5%,.,-3.4%,-15%,?,.,.
CCOc1cccc(OCCOCCn2cnc3ccccc3c2=O)c1,8%,-1%,2%,6.7%,-11%,-2%,26%,-4%
O=C(Cc1ccc(Cl)cc1)c1ccccc1,.,38%[activator],-12%,.,.,?,26%[46.1 µM],.
CCCCCCCCCCOC(=O)Cn1c(COc2ccccc2OC)[n+](C)c2ccccc21,-13%,?,9%,.,.,2.5µM*,?,-100%
CSCCC(NC(N)=O)C(=O)Nc1cccc(S(=O)(=O)N2CCOCC2)c1 (centres undefined),0%,1%,-3%,.,.,1%[46.1 µM],6%,2%
Cc1oc2ncnc(N3CCOCC3)c2c1C(=O)N1CCN(c2cccc(C(F)(F)F)c2)CC1,.,-21%,.,-2.6%,?,.,2%[46.1 µM],.
Cn1c(=O)[nH]c(=O)c2[nH]c(CN3CCN(Cc4ccccc4)CC3)nc21,3%,0%,6%,.,.,.,.,8%
C=CCn1c(O)c(C(C)=NCCC(c2ccccc2)c2ccccc2)c(=O)[nH]c1=O,9%,?,21%,-6.5%,-8%,?,?,7%
CC1(c2cccc(Br)c2)NC(=O)N(CC(=O)Nc2ccc(S(N)(=O)=O)cc2)C1=O (centres undefined),1%,2%,1%,.,.,-3%[46.1 µM],10%[46.1 µM],24%
CC(=O)NC(=S)Nc1ccccc1C(=O)Nc1ccccc1,-24%,-6%,10%,-0.2%,-10%,6%,-1%,-14%
CCOc1ccccc1NC(=O)c1nnn(CC(=O)Nc2ccc3c(c2)OCO3)c1N,-2%,-22%,1%,.,.,?,-10%[46.1 µM],22%
Cn1cnnc1Sc1cc(N2CCN(S(=O)(=O)c3ccc4ccccc4c3)CC2)ccc1[N+](=O)[O-],16%,-3%,-5%,-2.1%,?,-3%,-4%,?
O=C(COc1ccccc1Cl)N1CCN(c2ccc(F)cc2)CC1,-7%,-7%,-6%,-0.3%,2%,-14%,4%,-8%
CC(=O)COC(=O)C1CC(=O)N(c2ccc(C)c(C)c2)C1 (centres undefined),0%,-15%,-2%,.,.,25%,-8%,2%
Cc1occc1-c1nnc(SCC(=O)N2CCOCC2)n1CC(C)C,7%,-12%,-1%,-3.0%,6%,19%,6%,9%
O=C(O)c1ccc(Cl)c(S(=O)(=O)Nc2ccc(S(=O)(=O)Nc3cccc(Cl)c3)cc2)c1,25%,40%[activator],-28%,.,.,13%[46.1 µM],3%[46.1 µM],18%
CCC(C)NC(=O)c1ccccc1NC(=O)CN1C(=O)c2ccccc2S1(=O)=O (centres undefined),0%,7%,3%,7.8%,1%,.,.,-5%
Cc1ccc(NC(=O)C(C)OC(=O)c2ccc(NS(=O)(=O)c3ccc(F)c(F)c3)cc2)cc1 (centres undefined),-9%,?,7%,-9.5%,-23%,?,?,4%
Cc1cc(=O)n2c3ccccc3n(CC(O)CN3CCN(CCO)CC3)c2c1C#N (centres undefined),0%,-5%,-9%,.,.,8%[46.1 µM],7%[46.1 µM],1%
O=C(CN1CCN(S(=O)(=O)c2ccc(F)cc2)CC1)Nc1cc(C(F)(F)F)ccc1Cl,-1%,-17%,-2%,-5.6%,21%,?,?,-32%
CC1CN(C2CCCCC2)C(=S)N(c2ccccc2)C1=O (centres undefined),.,-23%,-1%,.,.,16%[46.1 µM],-5%[46.1 µM],.

# High-throughput results: PubChem BioAssay, National Center for Advancing Translational Sciences (NCATS)
